# Assay outcomes from PubChem BioAssay.
# gsp antag: qHTS for Antagonists of gsp, the Etiologic Mutation Responsible for Fibrous Dysplasia/McCune-Albright Syndrome: qHTS; gsp-mutant cells, cAMP HTRF, 30 min; control for the full effect not named in the record; Potency, µM (top dose mostly 76.9 µM), for the others: at the highest dose activity change, negative = inhibition, actives largely listed as inhibitors; hit rate 0.4% among 340,000; active = falling curve of any shape with a large fitted effect; inconclusive = falling curve, mostly with a smaller effect; inactive = flat or rising curve; cell line not stated here;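 also: intracellular cAMP measured with PDE inhibitor Ro 20-1724 present during compound exposure; potency is read from the fitted curve at half-maximal effect; % is scaled to controls: 0 for no effect and ±100 for the full control effect; nearly all actives have a fitted effect of over 65% in size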
#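 Measurement of cellular cAMP by homogeneous time-resolved fluorescence following a 30 min compound exposure at 37C. The PDE inhibitor […] was present throughout; the assay buffer was DPBS with 0.05% BSA and 0.005% Tween 20.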
# CtBP-E1A blk: qHTS Assay for Inhibitors of the CtBP/E1A Interaction; CtBP / adenovirus E1A interaction (AlphaScreen); AlphaScreen GST-E1A/His-CtBP binding, 1536-well; hits give low values; control for the full effect not named in the record; activity change, % (no concentration beside the values); hit rate 0.49% among 340,000; in the data active means activity change below about -65%; inconclusive means about -30% to -65%; inactive means above about -30%; also: % is scaled to controls: 0 for no effect and ±100 for the full control effect; compound concentration not given in the record
#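 In 5 uL wells, 23 nL compound meets equimolar GST-E1A and His-CtBP (5X stock 125 nM each) for 2 h, 37 °C. Beads (5X, 50 ug/mL) then 1 h, 37 °C, dark.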
# Sfp PPTase inh: qHTS Assay for Inhibitors of Bacillus subtilis Sfp phosphopantetheinyl transferase (PPTase) | Biochemical Sfp PPTase activity, qHTS | Potency, µM, inactives show max response, negative = inhibition, hits mostly inhibitors | hit rate 3.5% among 310,000; active = well fitted inhibition curve with a large enough effect; inconclusive = small, poorly fitted or top-dose-only effect, or another doubt; inactive = no such curve, though single readings can be large or run the other way;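 also: the enzyme is Sfp with the accession as filed and its product quenches rhodamine fluorescence; potency is read from the fitted curve at half-maximal effect; 0% = enzyme reaction without inhibitor and -100% = no enzyme wells; top concentration of the series not given in the record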
#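 Fluorescence-quenching assay: 15 nM Sfp-PPTase preincubated 15 min at room temperature with compound, then 5 uM rhodamine-CoA and 12.5 uM BHQ-2-labelled YbbR peptide added. Fluorescence (ex 525/em 598 nm) read at start and after 30 min; difference gives rate.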
# ClpP mod: qHTS Assay for Activators of ClpP. ATP-dependent Clp protease proteolytic subunit (Bacillus subtilis (strain 168)), P80244. purified B. subtilis ClpP, FRET peptide cleavage, 20 min. Potency, µM (titrated, usually from 57.5 µM), without a hit: at the highest dose activity change, negative = active. hit rate 1.9% among 340,000. AID 651965, 2013; active = well fitted falling curve with a large enough effect; inconclusive = small, poorly fitted or top-dose-only effect; inactive = no such curve, though single readings can be large or run the other way; also: potency is read from the fitted curve at half-maximal effect; the source files actives as falling curves though it sought activators and does not explain the sign; nearly all actives have a fitted effect of over 65% in size; many hits overshoot -100%
# Target sequence (P80244 whole entry, looked up): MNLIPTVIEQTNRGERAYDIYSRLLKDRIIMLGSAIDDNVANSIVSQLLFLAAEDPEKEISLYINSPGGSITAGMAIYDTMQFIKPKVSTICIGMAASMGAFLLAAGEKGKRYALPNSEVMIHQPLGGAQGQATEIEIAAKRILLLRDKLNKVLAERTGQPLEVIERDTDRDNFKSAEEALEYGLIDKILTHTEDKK
#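 Purified B. subtilis ClpP, 10 microg/mL final in Tris/HCl pH8 with KCl, BSA, glycerol and Tween-20, cleaved an Abz/nitrotyrosine-quenched decapeptide. Fluorescence (ex 320, em 430) was read at 0 and 20 min at room temperature. Delta was normalized to 5.8 microM ADEP and DMSO/no-enzyme controls.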
# TRPV1 PAM: HTS Assay for Compounds that Act as Potentiators of the Vanilloid Receptor 1; Transient receptor potential cation channel subfamily V member 1 (Homo sapiens), Q8NER1; hit rate 0.02% among 320,000; potentiation, % at 8.33 µM; TRPV1-expressing cells, Fluo-8 calcium influx, capsaicin EC20 potentiation; host cell line not named in the record; control for the full effect not named in the record; AID 540277, 2011; active means potentiation above 80%; inconclusive means 30% to 80%; inactive means below 30%; also: 0% is about no effect
# Target sequence (Q8NER1 whole entry, looked up): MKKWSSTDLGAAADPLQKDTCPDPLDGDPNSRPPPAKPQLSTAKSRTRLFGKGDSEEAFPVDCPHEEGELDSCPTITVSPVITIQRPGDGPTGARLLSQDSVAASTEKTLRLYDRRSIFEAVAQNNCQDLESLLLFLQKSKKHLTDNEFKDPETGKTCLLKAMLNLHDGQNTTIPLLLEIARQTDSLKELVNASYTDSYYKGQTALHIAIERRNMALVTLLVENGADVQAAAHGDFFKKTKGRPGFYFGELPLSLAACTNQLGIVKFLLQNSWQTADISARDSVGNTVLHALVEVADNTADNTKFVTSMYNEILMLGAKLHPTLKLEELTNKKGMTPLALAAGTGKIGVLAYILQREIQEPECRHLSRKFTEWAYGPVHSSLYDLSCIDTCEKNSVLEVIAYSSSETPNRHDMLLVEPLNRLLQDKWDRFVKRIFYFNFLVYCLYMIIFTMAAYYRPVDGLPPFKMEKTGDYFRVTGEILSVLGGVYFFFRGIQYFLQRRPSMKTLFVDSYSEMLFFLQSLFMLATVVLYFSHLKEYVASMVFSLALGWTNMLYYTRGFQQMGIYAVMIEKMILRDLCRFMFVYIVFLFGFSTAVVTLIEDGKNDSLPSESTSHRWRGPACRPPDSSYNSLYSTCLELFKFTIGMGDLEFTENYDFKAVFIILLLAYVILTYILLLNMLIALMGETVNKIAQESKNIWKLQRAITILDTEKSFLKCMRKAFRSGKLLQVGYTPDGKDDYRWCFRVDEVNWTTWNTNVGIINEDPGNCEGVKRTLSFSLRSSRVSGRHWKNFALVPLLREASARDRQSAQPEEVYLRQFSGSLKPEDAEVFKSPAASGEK
#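 TRPV1-expressing cells were cultured overnight at 35.5C and loaded with Fluo-8 calcium dye for 40 to 90 min at room temperature. After a 10 s baseline, compound was added and calcium influx was read kinetically for 3 min (ex 480/em 520 nm).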
# Menin-MLL FL inh: qHTS Assay for Inhibitors Targeting the Menin-MLL Interaction in MLL Related Leukemias: Competition With Fluorescein Labeled MLL-derived Peptide; AID 1766, 2009; Fluorescence polarization, fluorescein-MLL peptide displacement from menin; FP activity change, % at 61.4 µM; 290,000 tested, under 10 active; inconclusive = falling polarisation curve, or a change in total fluorescence; inactive = total fluorescence flat and polarisation flat or rising; no compound was filed as active; the % refers to the polarisation; negative = inhibition;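 also: % of control where 0% means no effect; inhibitors lower the polarisation; unlabelled MLL peptide was the positive control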
# gsp ag: qHTS for Agonist of gsp, the Etiologic Mutation Responsible for Fibrous Dysplasia/McCune-Albright Syndrome: qHTS | gsp mutant cells, cAMP HTRF, 30 min; control for the full effect not named in the record | Potency, µM (top dose mostly 76.9 µM), without a hit: top-dose activation (cAMP increase), usual class: activators | hit rate 0.13% among 340,000 | AID 624287, 2012; active = well fitted activation curve with a large enough effect; inconclusive = small, poorly fitted or top-dose-only effect, or another doubt; inactive = no such curve, though single readings can be large or run the other way; cell line not stated here;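 also: phosphodiesterase inhibitor Ro 20-1724 added with compounds to block cAMP breakdown; potency is read from the fitted curve at half-maximal effect; nearly all actives have a fitted effect of over 60% in size; about a fifth of the inactives were tested at one dose only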
#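 Cells in DMEM/10% FBS with G418 were pretreated with compounds in DMSO plus […] (300 uM stock) for 30 min at 37C. cAMP was measured by HTRF (cAMP-d2 plus anti-cAMP antibody-K) after 30 min at room temperature.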
# The depositor's hits bear a star; ? = inconclusive; / = no result given; & = joins results of further samples; ! = not confirmed by another sample; [ ] = dose if it differs, or a comment.
# The opening six compounds, ahead of the listing:
entry	mol	gsp antag	CtBP-E1A blk	Sfp PPTase inh	ClpP mod	TRPV1 PAM	Menin-MLL FL inh	gsp ag
1	Cn1cc(S(=O)(=O)N2CCOCC2)cc1C(=O)NCc1ccc(Cl)cc1	2%	0	13%	2.4%	?	-1.6	-4%
2	O=c1[nH]c2c(oc3ccccc32)c(=O)n1Cc1ccccc1	10%	-11	7%	/	10	7.0	?
3	COc1ccc(-c2cnc3c(c2)C(=O)N([C@H](C)CO)C[C@H](C)[C@H](CN(C)C(=O)Cc2cccnc2)O3)cc1	/	1	/	-16%	/	/	-5%
4	COc1ccc(/C=N/NC(=O)C2CC2)c(OC)c1OC	-5%	6	5%	0.0%	-2	1.3	10%
5	CCn1c(C(O)c2ccc(C)cc2)nc2ccccc21 (centres undefined)	0%	0	-4%	?	6	-0.5	14%
6	O=C(/C=C/c1ccc(F)cc1)NCc1ccco1	15%	-3	8%	1.1%	?	5.9	20%

# All compounds of this part, repeating the preview:
entry	mol	gsp antag	CtBP-E1A blk	Sfp PPTase inh	ClpP mod	TRPV1 PAM	Menin-MLL FL inh	gsp ag
1	Cn1cc(S(=O)(=O)N2CCOCC2)cc1C(=O)NCc1ccc(Cl)cc1	2%	0	13%	2.4%	?	-1.6	-4%
2	O=c1[nH]c2c(oc3ccccc32)c(=O)n1Cc1ccccc1	10%	-11	7%	/	10	7.0	?
3	COc1ccc(-c2cnc3c(c2)C(=O)N([C@H](C)CO)C[C@H](C)[C@H](CN(C)C(=O)Cc2cccnc2)O3)cc1	/	1	/	-16%	/	/	-5%
4	COc1ccc(/C=N/NC(=O)C2CC2)c(OC)c1OC	-5%	6	5%	0.0%	-2	1.3	10%
5	CCn1c(C(O)c2ccc(C)cc2)nc2ccccc21 (centres undefined)	0%	0	-4%	?	6	-0.5	14%
6	O=C(/C=C/c1ccc(F)cc1)NCc1ccco1	15%	-3	8%	1.1%	?	5.9	20%
7	CCCCCN(C(=O)CCC(=O)OC(C)C(=O)c1ccc(CC)cc1)c1c(N)n(CCCC)c(=O)[nH]c1=O (centres undefined)	-4%	-1	/	-0.8%	/	/	-8%
8	CC(NS(=O)(=O)c1ccc(F)cc1)C(c1cccs1)N1CCOCC1 (centres undefined)	10%	2	2%	1.6%	12	0.7	4%
9	Cc1ccccc1C(=O)N(C)Cc1ccccc1	-17%	3	8%	-2.8%	-5	-3.3	20%
10	S=C(c1ccc(N2CCOCC2)cc1)N1CCOCC1	6%	2	-6%	0.0%	-28	-2.4	2%
11	CC(=O)Nc1cccc(NS(=O)(=O)Cc2ccc(Cl)cc2)c1	-8%	3	1%	-1.6%	-17	-0.9	-6%
12	COc1cc(C(=O)N/N=C(\C)Cc2ccccc2)cc(OC)c1OC	23%	3	-6%	/	8	4.7	24%[15.4 µM]
13	O=S(=O)(Nc1ccccn1)c1ccc(Oc2ccccc2)cc1	-4%	-1	4%	-30%	-2	-5.1	0%
14	Cn1c(SCC(=O)Nc2nccs2)nnc1-c1cccnc1	-29%	14	/	2.1%	1	/	?
15	CCOC(=O)Cc1csc(NC(=O)CSc2nc3cccnc3n2CC)n1	-11%	-13	-13%	-0.8%	6	-2.2	9%
16	O=C(O)CCCNC(=O)c1cncc(O)c1	10%	-1	-2%	?	1	1.8	6%
17	COC(=O)c1ccc(OCC(=O)Nc2nn(-c3ccccc3)nc2C(N)=O)cc1	14%	-5	15%	?	3	4.2	-9%
18	COc1ccc(C(CC(=O)O)NS(=O)(=O)c2ccc(C)cc2)cc1OC (centres undefined)	11%	-1	5%	0.6%	10	5.1	15%
19	CN(C(=O)c1cc(S(=O)(=O)N2CCOCC2)cs1)c1ccccc1	17%	14	16%	0.4%	1	-0.3	-12%
20	CCOc1ccc(N2C(=O)Nc3ccccc3C2(O)C(=O)NCc2ccccc2)cc1 (centres undefined)	5%	0	6%	/	5	1.7	-2%[15.4 µM]
21	CCC(C)Sc1cccc(-c2nc3ccc(C)cn3c2NC2CCCCC2)c1 (centres undefined)	?	3&-2	/	16µM*!	?	/	/
22	COc1ccccc1N(CC(=O)NCC1CCCO1)C(=O)CCC(=O)Nc1cc(C)on1 (centres undefined)	10%	16	8%	-1.1%	4	/	-7%[15.4 µM]
23	CC1(C)C(c2ccccc2)=NC(c2ccc(Br)cc2)N1O (centres undefined)	8%	-23	3%	-3.0%	-5	-4.9	2%[15.4 µM]
24	C[C@@H]1CN([C@H](C)CO)C(=O)c2cc(NC(=O)Nc3cccc4ccccc34)ccc2O[C@H]1CN(C)Cc1ccc(C(F)(F)F)cc1	2%	-11	/	?	/	/	/
25	CCCc1c(C(=O)N/N=C(\C)CCc2ccccc2)nnn1-c1nonc1N	-21%	29	17%	1.9%	-17	-3.0	-17%
26	COc1ccccc1C1(CC(=O)N2CCCCC2)CCOC(C(C)C)C1 (centres undefined)	-6%	1	10%	0.3%	-16	1.7	-4%
27	Cc1ccc(N2CC(C(N)=O)CC2=O)cc1 (centres undefined)	6%	1	13%	-4.3%	-3	-0.8	-1%
28	O=C(Nc1ccccc1)/C(=C/c1ccccc1)c1ccccc1	-20%	16	2%	-3.3%	-3	2.5	-31%[inhibitor]
29	CN1CCN(S(=O)(=O)c2cccc(S(=O)(=O)c3ccc(Cl)c(Cl)c3)c2)CC1	-1%[15.4 µM]	2	9%	-3.3%	-6	-5.8	23%
30	O[C@@H]([C@H](O)[C@H](O)CBr)[C@H](O)CBr	4%	3	-11%	-1.4%	/	2.0	/
31	CCCN1CCN(CCNC(=O)Nc2cc(C)ccc2C)CC1	3%	/	5%	-3.0%	-1	-6.4	6%
32	CCN1CCOC(CC(=O)Nc2cccc([N+](=O)[O-])c2)C1=O (centres undefined)	7%	-4	?	/	-7	-2.9	1%[15.4 µM]
33	O=C(NC(Cc1ccccc1)C(=O)NC(Cc1ccccc1)C(=O)O)c1ccccc1 (centres undefined)	/	0	-4%	/	13	-1.1	18%[15.4 µM]
34	O=[N+]([O-])c1cc(S(=O)(=O)N2CCCCC2)ccc1NCc1cccc(Cl)c1	14%	-19	10%	0.6%	18	7.2	-2%
35	O=C(CN1C(=O)/C(=C/c2ccc(C(F)(F)F)cc2)Sc2ccccc21)NCCCN1CCOCC1	-2%	0	-12%	1.3%	-2	0.7	-16%
36	CNC(=S)NCc1ccc(OC)cc1	10%	-15	26%	-4.4%	-3	0.7	-16%
37	CC(=O)Nc1ccc(S(=O)(=O)Nc2nc(C)cc(-n3nc(C)cc3C)n2)cc1	10%	2	-18%	11%	-1	-0.2	12%
38	c1cnc(Oc2ccc(-c3nnco3)cc2)cn1	3%	5	6%	0.6%	-2	3.1	11%
39	CCOc1cc(S(=O)(=O)N2CCN(Cc3ccccc3)CC2)ccc1Br	4%	-1	-19%	-1.3%	-4	-2.9	?
40	Cc1ccc(CNC(=O)/C=C/c2ccc(Br)o2)cc1	5%	-11	28µM*	-2.0%	-20	3.3	0%[15.4 µM]
41	CN1CCN(C(=O)c2cc(Cl)ccc2NC(=O)c2ccc(Cl)cc2Cl)CC1	3%	7	12%	-0.7%	1	/	4%
42	COc1ccc(/C=C/C(=O)NC(=S)Nc2ccc(S(=O)(=O)Nc3cc(C)on3)cc2)cc1	?	-25	-1%	/	2	3.1	-19%[15.4 µM]
43	COc1ccc(C)cc1NC(=O)C1CCCN(S(=O)(=O)c2ccc3[nH]c(=O)ccc3c2)C1 (centres undefined)	-21%	-12	10%	-3.9%&-11%	-1	0.8	?
44	Cc1ccc(S(=O)(=O)N2CCCN(C(C)c3nc4ccccc4c(=O)[nH]3)CC2)cc1 (centres undefined)	-9%	/	/	-6.1%	3	/	-24%
45	NS(=O)(=O)c1ccc(NC(=S)N2CCc3ccccc32)cc1	3%	-2	-13%	-1.7%	-3	/	-11%
46	O=C(N/N=C/c1sc2ccccc2c1O)c1cccc2ccccc12	-20%	?	1%	-2.2%	?	?	0%[15.4 µM]
47	Cc1cc2oc(=O)cc(CN3CCCCC3)c2cc1O	4%	/	6%	-5.1%	-8	-0.6	7%
48	CCn1c(C)nc2cc(C(=O)NNC(=S)Nc3ccccc3)ccc21	0%	-25	19%	/	6	1.3	0%
49	COc1ccc(S(=O)(=O)NCCc2ccncc2)cc1	4%	1	4%	0.9%	6	-3.1	-20%
50	C[C@H]1Cn2cnc(C(=O)Nc3ccccc3)c2C(=O)N1	/	2	/	-0.3%	/	/	-24%
51	COc1ccc2[nH]c(=O)c(CN(CCN3CCCC3)C(=O)Nc3ccccc3Cl)cc2c1	-4%	-3	-8%	32µM*	-24	8.7	-14%
52	O=S(=O)(c1cccs1)N1CCN(c2ccc(Cl)cc2)CC1	1%	4	2%	-4.9%	-2	-3.1	-26%
53	Cc1cccc2c(SCC(=O)NCC3CCCO3)nc(-c3ccc(F)cc3)nc12 (centres undefined)	8%	-15	12%	-0.9%	-15	4.4	3%
54	CC(Sc1nnc(COc2ccc([N+](=O)[O-])cc2)n1-c1ccccc1)C(=O)O (centres undefined)	4%	2	14%	/	-6	-0.1	-8%[15.4 µM]
55	Cn1c(CCC(N)=O)nnc1SCC(=O)Nc1cc(S(=O)(=O)N2CCCC2)ccc1Cl	7%	-2	/	-2.0%	2	/	-3%
